# VACV mCherry inh: qHTS for Stage-Specific Inhibitors of Vaccinia Orthopoxvirus: mCherry Reporter Primary qHTS | Vaccinia virus mCherry reporter infection, fluorescence; about a quarter of the inactives have no number | Potency, µM (series often up to 36.5 µM), inactives show top-dose activity change, negative = inhibition, hits mostly inhibitors | 0.63% of 310,000 active | AID 720579, 2013; active = well fitted inhibition curve with a large enough effect; inconclusive = small, poorly fitted or top-dose-only effect; inactive = no such curve, though single readings can be large or run the other way; tested in A549 cells; also: nearly all actives have a fitted effect of over 35% in size; inactives centre near -10
# VACV Venus inh: qHTS for Stage-Specific Inhibitors of Vaccinia Orthopoxvirus: Venus Reporter Primary qHTS; Vaccinia virus Venus reporter expression, fluorescence; Potency, µM (series often up to 36.5 µM), for inactives: at the highest dose activity change, negative = inhibition, actives largely listed as inhibitors; 0.46% of 330,000 active; AID 720580, 2013; active means well fitted inhibition curve with a large enough effect; inconclusive means small, poorly fitted or top-dose-only effect; inactive means no such curve, though single readings can be large or run the other way; tested in A549 cells; also: nearly all actives have a fitted effect of over 30% in size; inactives centre near -10
# The depositor's hits bear a star; i = inactive; ? = inconclusive; / = not tested or not shown; & = joins results of further samples; [ ] = another dose, or the depositor's remark. % is scaled to controls: 0 for no effect and ±100 for the full control effect; potency is read from the fitted curve at half-maximal effect. Compounds were not picked by outcome, and some 0.82% of all compounds hit somewhere here.
# Results follow in this order: VACV mCherry inh	VACV Venus inh
Cc1ccc(NC(=S)N2CCN(S(=O)(=O)c3c(F)cccc3F)CC2)cc1C
→ -10%	-12%
COc1cccc(NC(=O)Cn2c(=O)n(CCc3ccccc3)c(=O)c3c4c(sc32)CN(C(C)=O)CC4)c1
→ i	-17%
Cc1cccn2c(Nc3ccccc3)c(-c3ccccn3)nc12
→ ?	-7%
CC(=O)N1c2ccc(S(=O)(=O)NCCC(=O)Nc3ccc(F)cc3)cc2CC1C (centres undefined)
→ -3%	3%
COc1cc(/C=C(/NC(=O)c2ccccc2)C(=O)Nc2ccc(O)cc2)c([N+](=O)[O-])cc1OC
→ -9%	-4%
O=C(Nc1ccc(F)cc1)c1cccn1-c1nnc(N2CCCCC2)s1
→ -6%	-5%
CC(C)C(C(=O)Nc1ccc2c(c1)OCCOCCOCCOCCO2)N1C(=O)c2ccccc2C1=O (centres undefined)
→ ?	?
CCCCCNC(=O)CCn1c(=O)[nH]c2ccccc2c1=O
→ ?	-30%
Cc1cc(OCC(O)CN(CCO)CCO)ccc1Cl (centres undefined)
→ /	-29%
CCCSc1ncc(Cl)c(C(=O)Nc2sc3c(c2C(=O)NCCOC)CCCC3)n1
→ i	0%
COCCNC(=O)C(=O)Nc1ccc(Cl)cc1C
→ -23%	-8%
COc1cccc(CN(C)C(=O)c2cccc(S(=O)(=O)Nc3cccc(C)c3)c2)c1OC
→ i	-18%
CCOC(=O)/C(C#N)=C/Nc1ccsc1C(C)=O
→ i	-15%
Cc1cccc(Oc2nc3c(C)cccn3c(=O)c2/C=C(\C#N)c2nc3ccccc3s2)c1
→ -2%	10%
O=C(CSc1nc2c([nH]c3ccccc32)c(=O)n1-c1ccc(Cl)cc1)N1CCc2ccccc21
→ 5%	-2%
COc1ccc(OCC(=O)N2CCOCC2)cc1
→ -3%	-9%
O=C(O)/C=C/C(=O)NNC(=O)c1ccc(Cl)cc1Cl
→ 1%	-10%
COc1ccc([C@H]2CC(=O)C=C(c3ccc(F)cc3OCc3ccccc3)C2)cc1OC
→ ?	?
O=C(NCCCN1CCN(c2ccccc2)CC1)c1nnc(Cc2c(F)cccc2Cl)o1
→ -8%	-8%
CCCNC(=O)Cn1ncc2c3ccccc3n(CCC)c2c1=O
→ -6%	-4%
Cc1ccc(NC(=S)NCCCN2CCOCC2)cc1
→ -13%	-9%
Cc1ccc2ncc(C(=O)NC(C)c3ccccc3)c(=O)n2c1 (centres undefined)
→ -13%	-11%
CCOC(=O)C1=C(CC)OC(N)=C(C#N)C1c1ccc(NC(C)=O)cc1 (centres undefined)
→ i	-15%
CCN(CC)CCC(c1ccc(OC)cc1)c1c(O)cc(OC)cc1OC (centres undefined)
→ -8%	-14%
O=C(c1ccccc1F)N1CCN=C1SCc1cccnc1
→ 1%	-8%
O=C(COc1ccccc1)N(Cc1ccco1)c1ccc(O)cc1
→ /	-19%
CCOC(=O)c1cc(C(=O)NN)c(C)nc1C
→ -9%	2%
COCCN(CCOC)Cc1c(O)ccc2c1O/C(=C\c1ccco1)C2=O
→ -6%	1%
CC(=O)N[C@@H](Cc1c[nH]c2ccccc12)C(=O)O
→ -1%	-8%
COc1ccc(-c2nnc(SCC(=O)NC3CCCC3)nc2-c2ccc(OC)c(OC)c2)cc1OC
→ i	-24%
Cc1ccc(S(=O)(=O)N/N=C/c2ccc(C#N)cc2)cc1
→ -24%	-11%
COc1cccc(NC(=O)CN(C)C(=O)c2ccc(-c3ccc(Cl)cc3)o2)c1
→ -18%	-25%
CN(C)S(=O)(=O)N(CC(=O)NCCSc1ccccc1)c1ccccc1
→ -8%	-8%
CCOC(=O)c1cnc2c(C)cc(C)cc2c1NCCc1ccc(OC)c(OC)c1
→ -8%	-15%
N#Cc1cccc(NC(=O)C2CCN(c3ncccn3)CC2)c1
→ -1%	-5%
CCOC(=O)CSc1ccc(C(=O)Nc2ccc(OC)cc2)cn1
→ i	-13%
N#CC1(NC(=O)CSc2ccccn2)CCCCC1
→ -14%	-15%
CCOc1ccc(NC(=O)CSc2nc3ccsc3c(=O)n2CCC(=O)O)cc1
→ i[7.34 µM]	-19%[7.34 µM]
CC(C)C[C@H]1COc2cccc(N3CCC[C@@H]3CO)c2S(=O)(=O)N1
→ -7%	-3%
CC(C)c1cc(C(=O)O)n(-c2ccccc2)n1
→ -13%	-2%
Cc1cc(C(F)(F)F)c(C#N)c(N2CCOCC2)n1
→ -12%	-5%
CC(=O)OC1CC[C@@]2(C)C3CC(=O)[C@]4(C)C(C(C)=O)=CCC4C3CC[C@H]2C1 (some centres undefined)
→ i	0%
CCCn1c(CN2CCN(C(=O)OCC)CC2)nc2c1c(=O)n(C)c(=O)n2C
→ -27%	-6%
CCN(c1cccc(C)c1)C(C(=O)Nc1ccc(OC)cc1)c1cc2c(cc1[N+](=O)[O-])OCO2 (centres undefined)
→ -10%	-12%
O=C(Nc1ccc(C(=O)O)cc1)Nc1cccc([N+](=O)[O-])c1
→ -9%	6%
Cc1ccc2c(c1)nnn2C1CCN(S(=O)(=O)c2ccc(C(=O)N3CC(C)CC(C)C3)cc2)CC1 (centres undefined)
→ -12%	-6%
CCc1nn2c(=O)cc(CSc3nc(C)cc(=O)[nH]3)nc2s1
→ -9%	2%
Cc1ccc2occ(/C=C/C(=O)c3ccccc3O)c(=O)c2c1
→ /	1%
COCCNC(=O)C1(C)CCCN(C(=O)c2ccc3snnc3c2)C1 (centres undefined)
→ 7%	-13%
Cc1ccccc1N(CC(=O)NCCc1ccccc1)C(=O)c1ccc(N2CCCC2)nc1
→ -24%	-17%
O=C(/C=C/c1ccccc1)c1ccc(NC2=NCCCS2)cc1
→ -8%	-24%
Cc1ccnc(NC(=O)C2CC(=O)N(Cc3ccccc3)C2)c1 (centres undefined)
→ i	1%
O=c1c[n+]([O-])c2ccccc2n1OCc1c(F)cccc1F
→ -25%	-8%
Cc1nc(Nc2cc(F)ccc2C)c2nnn(Cc3ccccc3)c2n1
→ 2%	-8%
O=C(O)CC(CC(=O)Nc1nncs1)c1ccccc1 (centres undefined)
→ 7%	20%
CCOC(=O)C1=C(C)Nc2sc(C(=O)c3ccc(OC)cc3)c(N)c2C1c1ccc(C(=O)OC)cc1 (centres undefined)
→ -18%	-10%
Clc1ccc(CN=C(Nc2ccccc2)NC2CCCCC2)cc1
→ -21%	-23%
CCOC(=O)CSc1nc(Nc2ccc3c(c2)OCO3)c2ccccc2n1
→ -15%	-10%
Cc1ccc(C(C(=O)NC2CCCC2)N(C(=O)c2csnn2)c2ccccc2)o1 (centres undefined)
→ -13%	-10%
COc1ccc(C(=O)Nc2ccc3oc(-c4cccc5c(Br)cccc45)nc3c2)cc1
→ -8%	1%

# Compound profiles, from the list above. Order of values: VACV mCherry inh, VACV Venus inh
# Record of CCOC(=O)CSc1ccc(C(=O)Nc2ccc(OC)cc2)cn1 : i, -13%
# Record of CCN(c1cccc(C)c1)C(C(=O)Nc1ccc(OC)cc1)c1cc2c(cc1[N+](=O)[O-])OCO2 (centres undefined) : -10%, -12%

# (next part)
# Results follow in this order: VACV mCherry inh	VACV Venus inh
COc1ccc(OC)c(NC(=O)c2ccc(CN(c3cc(Cl)ccc3C)S(=O)(=O)c3ccccc3)cc2)c1
→ /	-7%
O=C(COC(=O)/C=C/c1cccc(F)c1)NC1CCCCC1
→ i	-9%
CCCS(=O)(=O)N1CC(=O)N(c2ccc(C)c(Cl)c2)C(C)(C(=O)NC2CCCCCC2)C1 (centres undefined)
→ i	-7%
Cc1cc(C)c(NC(=O)CSc2nc3c(c(=O)n2C)SC(C)C3)c(C)c1 (centres undefined)
→ 10%	-10%
Cc1cc(C(=O)NCCCn2ccnc2)cs1
→ -14%	-7%
O=C(CN1CCN(c2cccc(C(F)(F)F)c2)CC1)N(C1CCCC1)C1CCS(=O)(=O)C1 (centres undefined)
→ -20%	-8%
O=C(NC1CCS(=O)(=O)C1)c1ccc2c(c1)OCO2 (centres undefined)
→ -7%	-4%
Cc1ccc(N(CC(=O)NCCc2ccccc2)C(=O)CCC(=O)Nc2cc(C)ccn2)cc1
→ -21%	-12%
Cn1c(C(=O)N[C@@H](Cc2ccccc2)C(=O)O)cc2cc(Cl)ccc21
→ -11%	-3%
CC(c1nc2scc(-c3ccccc3)c2c(=O)[nH]1)N1CCN(CC(=O)NC2CC2)CC1 (centres undefined)
→ -28%	?
O=c1[nH]n2c(=O)c3c([nH]c2c1N=Nc1cccc(C(F)(F)F)c1)CCCC3
→ -18%	-7%
C/C(=N\OCC(=O)Nc1ccc(F)c(F)c1F)c1cc2ccccc2o1
→ -12%	-9%
CC1CCC(C(O)(C(=O)c2ccccc2)c2ccccc2)C(=O)C1 (centres undefined)
→ ?	-11%
O=C1CC(SC2=NCCS2)C(=O)N1c1ccc(Br)cc1 (centres undefined)
→ -7%	-5%
CNC(=O)NC(=O)CN1C(=O)NC2(CCOc3ccccc32)C1=O (centres undefined)
→ -22%	2%
Cc1ccc(SCC(=O)OC(C)C(=O)NCc2ccccc2)cc1C (centres undefined)
→ i	1%
O=P(c1ccccc1)(c1ccccc1)C(O)c1ccncc1 (centres undefined)
→ -16%	-14%
CC(C)(C)c1ccc(/C=N/OCC(=O)NCc2ccc(F)cc2)cc1
→ ?	?
CCOc1cc(OCC)cc(C(=O)Nc2cccc(-c3nc4ccccc4[nH]3)c2)c1
→ 11µM*	11µM*
CCCCNC(=S)N=Nc1c(O)n(Cc2ccccc2)c2ccccc12
→ -1%	-23%
C=CCN(CC=C)c1ccc(/C=C/c2ccnc3ccccc23)cc1
→ -15%	15%
O=c1c2ccccc2nc(-c2ccco2)n1-c1nc2ccccc2s1
→ -11%	-11%
NS(=O)(=O)c1ccc(CCNC(=O)c2cc(-c3cccs3)nc3ccccc23)cc1
→ i	-18%
C[C@@H]1CN([C@@H](C)CO)S(=O)(=O)c2ccc(Br)cc2O[C@H]1CN(C)C(=O)Nc1ccc2c(c1)OCO2
→ -5%	-9%
CCC1CN(C(=O)Nc2cccc3c2CCCC3)c2ccccc2O1 (centres undefined)
→ -7%	-12%
CCOc1ccccc1N1CCN(C(=O)c2ccc3nc(N)sc3c2)CC1
→ ?	?
COc1ccccc1CC(=O)Nc1ccc(Cl)cc1C(=O)O
→ -6%	-4%
COc1ccc(NC(=O)COC(=O)CCCOc2ccc(Cl)cc2Cl)cc1
→ -19%	-20%
COc1ccccc1CNS(=O)(=O)c1c(C)nc2scc(C)n2c1=O
→ 2%	0%
CCC(=O)Nc1cc(C)c(NC(=O)c2ccccc2OC)cn1
→ -16%	-3%
CC1=C(C(=O)Nc2ccccc2)C(CC(C)C)n2nc(SCc3ccccc3C)nc2N1 (centres undefined)
→ 11%	0%
CCc1noc(C)c1C(=O)N1CCN(S(=O)(=O)c2ccc(C)cc2C)CC1
→ -13%	-2%
CCCCc1nn2c(=O)cc(COC(=O)c3cccc(NC(=O)c4cccc(Cl)c4)c3)nc2s1
→ -13%	-1%
COc1ccc(N=Nc2cc(OC)c(N)cc2OC)cc1
→ ?	6%
CC(=O)Nc1cccc(NC(=O)CSc2nc(=O)n(Cc3ccncc3)c3c2CCC3)c1
→ -6%	-5%
CC(=O)Nc1ccc(NC(=O)C(C)Sc2nnc(-c3ccc4c(c3)OCO4)o2)cc1 (centres undefined)
→ -21%	4%
C=CCNC(=O)N[C@@H](CCSC)C(=O)OC
→ -2%	-10%
CC(C)(C)c1ccc(C(=O)NCC(c2cccnc2)N2CCc3ccccc3C2)cc1 (centres undefined)
→ -30%	-29%
Cc1cccc(NC(=O)c2c(C)nc3ccccn23)c1
→ -18%	-20%
Clc1ccc2sc(C3CCNCC3)nc2c1
→ -13%	-10%
COc1ccc(C)cc1NC(=O)CSc1ncc2c(n1)-c1ccc(Cl)cc1N(Cc1ccccc1)S2(=O)=O
→ -17%	-12%
CN1C[C@@H]2[C@@H]3C(=O)N(Cc4ccccc4)C(=O)[C@@H]3[C@](C)(C1=O)N2C(=O)c1ccc(C(C)(C)C)cc1
→ -10%	-19%
COc1ccc(/C=C2\SC(=S)N(CCCC(=O)N3CCN(C)CC3)C2=O)cc1OC
→ i	10%
COC(=O)c1cc(S(=O)(=O)NCc2ccc3c(c2)OCO3)cn1C
→ -13%	-15%
COc1cc(-c2nnn(CC(=O)NCc3ccccc3)n2)cc(OC)c1OC
→ -10%	-14%&-7%
CCc1noc(C)c1C(=O)N1CCCSC1=Nc1ccccc1C(C)C
→ -10%	-15%
Cn1ncc2c(Sc3ccc(Cl)cc3)ncnc21
→ i	5%
CC(C)(C)NC(=O)c1cccc(NC(=O)c2cccc(O)c2)c1
→ -25%	-16%
CC(C)CN(CCNC(=O)c1cn(C)c2ccc(S(=O)(=O)N3CCCC3)cc2c1=O)CC(C)C
→ -25%	-7%
CCOc1ccc(CCN2C(=O)C(=O)N([C@@H](CC(C)C)CN3CCC[C@H]3CN3C(=O)C(=O)NC[C@@H]3Cc3ccccc3)C[C@@H]2Cc2ccc(O)cc2)cc1
→ -9%	-13%
Cc1cccc(Nc2nc(N)nc(N)c2S(=O)(=O)c2ccccc2)c1
→ -5%	-2%
Cc1ccc(C(=O)NC2CCCCCC2)cc1S(=O)(=O)N1CCOCC1
→ -26%	-29%
Cc1ncsc1CCC(=O)N1CCCC(Nc2ccc(C(C)C)cc2)C1 (centres undefined)
→ -4%	-16%
CC(NC(=O)Nc1ccccc1)c1ccccc1 (centres undefined)
→ -18%	-5%

# Compound activity as filed in PubChem BioAssay.
